# Screens as filed in PubChem.
# Sa ugtP lethal: compounds lethal to S. aureus RN4220 ugtP deletion mutant; actives 0.54% (n = 330,000); OD600 growth, 16 h; some inactives read as strong as hits; growth inhibition, % (test concentration not listed);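 active = z-score under -3 and OD600 up to 0.15 on both plates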;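 also: plate controls were untreated wells for no effect and antibiotic for full effect; wells of about 80 µL received 100 nL stock; the first replicate is given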
# PrP 5UTR inh: inhibition of PrP 5' UTR reporter expression | actives 0.35% (n = 340,000) | cell-based PrP 5' UTR mRNA reporter, plate reader | inhibition, % (concentration not given with the values) | AID 488862;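 active = every replicate at 50% or more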;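 also: 0 = median of the neutral control wells; tested in H4 reporter cells; numbers are from one replicate; inactives centre near -14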
# Bead autofluor: compound fluorescence in toxin protease inhibitor counterscreen | compound autofluorescence counterscreen, microsphere flow cytometry; stronger effect = higher value | AID 624483 | fluorescence intensity (test concentration not listed) | actives 3.1% (n = 360,000);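 active = at least 3 SD above the mean of all compounds, about 16000 in these data; inconclusive = too few beads counted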;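 also: 100 nL of 1 mM stock went into each well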
# BJeLR lethal: BJeLR cell viability loss; BJeLR (HRASV12) viability, CellTiter-Glo ATP luminescence, 48 h; reference of the scale not given here; inhibition, % (concentration not given with the values); actives 0.17% (n = 300,000);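 active = replicate mean above 50%; inconclusive = above 50% but judged a plate artefact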;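 also: 50 nL library stock added to about 25 µL; numbers are from one replicate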
# Sa RN4220 lethal: S. aureus RN4220 growth inhibition | OD600, 16 h | inhibition, % (no concentration beside the values) | actives 0.33% (n = 330,000) | AID 1259311;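 active = z-score of -3 or lower and OD600 up to 0.18 on both plates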;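 also: plate controls were untreated cells for no effect and reference antibiotic for full effect; stock transfer was 100 nL into about 80 µL; one replicate is shown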
# Mtb hypoxia rep: reduces hypoxia-regulated biosensor signal in M. tuberculosis; M. tuberculosis hypoxia-regulated fluorescent reporter, fluorescence; fluorescence inhibition, % (no concentration beside the values); actives 0.1% (n = 300,000); AID 1159583;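 active = 35 to 45% if threefold the growth effect, above 45% if 1.5-fold the growth effect; inactive = the rest, general growth blockers included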;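 also: wells of about 50 µL received 100 nL stock; 0% = vehicle wells and 100% = reference inhibitor wells; whole bacteria with a GFP reporter of the hypoxia response; strong numbers were not always called active; many hits fall short of the cut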
# Mtb hypoxia rep growth: recorded beside Mtb hypoxia rep, whose call it bears; growth inhibition, %; measured here: M. tuberculosis growth (absorbance);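 0% = vehicle and 100% = reference antibiotic; read after six days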
# Numbers without * were called inactive; ? = inconclusive; / = no result given.
SMILES,Sa ugtP lethal,PrP 5UTR inh,Bead autofluor,BJeLR lethal,Sa RN4220 lethal,Mtb hypoxia rep,Mtb hypoxia rep growth
CC1=NN(c2ccc(C(=O)O)c(N)c2)C(=O)C1,2,-17,2038,4,3.3,-2,8
C[C@H]1CN(S(=O)C(C)(C)C)[C@@H](CCO)/C1=C\CCO (some centres not stated),0,-13,3746,/,1.4,-2,4
Cc1cc(NC(=O)CCC(=O)N(Cc2ccccc2)C(C(=O)NC2CCCC2)c2ccc(C)o2)no1 (configuration not stated),/,5,4041,-2,/,/,/
O=C(CSc1ccc2ccccc2n1)Nc1ccc(N2CCOCC2)cc1,0,-4,2561,-2,-5.5,2,1
COc1cc(CN2CCCC(C)C2)ccc1OCc1ccccc1 (configuration not stated),9,-25,3266,8,3.2,12,7
CC(c1ccccc1F)n1cc(C(=O)NCc2ccncc2)nn1 (configuration not stated),3,-41,4982,-3,0.8,/,/
CCOC(=O)C(Cc1ccccc1)C(=O)Nc1cccc(C)c1 (configuration not stated),4,-18,1986,3,5.3,-5,0
CCc1nnc2n1N=C(c1ccccc1)CS2,9,-25,3273,-5,4.4,3,0
Cc1cccc(C(=O)Nc2ccc3c(c2)CC2(C(=O)N(C)C(=O)N(C)C2=O)C2CCCN32)c1 (configuration not stated),/,-26,6023,2,/,/,/
CC1=C(C(=O)OCC2CCCO2)C(c2ccccc2)C2=C(CCCC2=O)N1 (configuration not stated),4,-17,4901,5,3.6,-5,3
Cc1ccc(-n2c(-c3cccs3)nc3nc4ccccc4nc32)cc1,9,/,/,2,12,-1,-6
Clc1ccc(-n2nnnc2-c2cnc3ccc(Cl)cc3c2-c2ccccc2)cc1,-35,-41,4702,-3,-4.0,-3,8
CC(=O)Nc1ccccc1OCC(=O)c1cc(C)n(Cc2cccs2)c1C,-5,-1,10017,13,1.3,7,7
O=C(Nc1nc(-c2ccco2)cs1)c1ccccc1,-22,-128,4070,3,-1.4,/,/
COc1ccc(-n2c(C)c(C)c3c(N)ncnc32)cc1,7,5,3760,-6,0.4,-10,0
NC(=O)OCCSc1nnc(-c2cccc(C(N)=S)c2)o1,-1,2,7831,-15,6.3,-1,5
COC(=O)Nc1ccc(S(=O)(=O)NCCCCCC(=O)O)cc1,4,-17,4300,-1,6.0,11,-3
Cc1ccc(-n2nc(C)c3c2OC(N)=C(C#N)C3c2ccc(F)cc2)cc1 (configuration not stated),-12,-140,22457*,-7,3.8,5,8
CC1OC2C(OC1C)N(S(C)(=O)=O)CCN2S(C)(=O)=O (configuration not stated),6,9,15881,-2,4.1,-6,-3
Cc1ccc(S(=O)(=O)N(CC(=O)Nc2ccccc2-c2ccccc2)c2ccc(C)cc2C)cc1,11,-18,1982,11,3.9,12,4
CC(C)(CNC(=O)COc1ccccc1Cc1ccccc1)N1CCOCC1,-10,-35,4514,3,6.1,1,9
CC(C)NC(=S)NN=Cc1cc(Br)ccc1O,-23,/,/,/,-3.9,-9,5
O=C(CSc1ccccn1)Nc1ccc(Br)cn1,11,-40,2656,0,4.7,/,/
CCOC(=O)c1ccc(NC(=O)c2nc[nH]c2C(=O)NCc2ccccc2)cc1,-53,-19,3748,9,-13,-3,7
COc1ccc(C2SCC(C(=O)NCc3ccc(F)cc3)N2C(C)=O)cc1 (configuration not stated),14,0,5735,2,2.7,/,/
O=C(C1=CC(c2ccc3c(c2)OCO3)CC(OCc2ccc(CO)cc2)O1)N1CCN(Cc2ccc3c(c2)OCO3)CC1 (configuration not stated),-13,/,/,/,13,9,1
Cc1ccc(CNCCc2ccc(F)cc2)s1,2,-17,3295,5,-0.2,-5,11
O=C(N/N=C/c1cc(Br)c(Br)o1)c1ccc2c(c1)OCCO2,/,-93,3733,-10,/,/,/
Cc1cc(N)n2nc(-c3ccccc3)cc2n1,10,-12,10209,6,7.9,17,9
COc1ccc(Cn2c(C3CC3)nc3ccc(NC(=O)c4cccnc4)cc3c2=O)cc1,6,-24,4086,-1,4.7,17,7
CCCOC1CCCN(C(=O)CCc2nnc(-c3ccc4c(c3)OCO4)o2)C1 (configuration not stated),9,-39,4255,-1,3.3,-1,0
COC(=O)[C@H](C)NC(=O)NC(C)CCc1ccccc1 (some centres not stated),-1,3,21607*,7,-0.2,-13,17
Cc1ccccc1OCC(O)Cn1c(=N)n(Cc2ccccc2)c2ccccc21 (configuration not stated),-12,10,4759,12,-2.4,-5,11
COc1ccc(C(=O)CC2OC(=O)c3ccccc32)cc1OC (configuration not stated),2,-18,21822*,10,7.6,6,11
Cc1nn(-c2ccccc2)c2c1C(c1cccnc1)N1C=C(S(=O)(=O)N3CCCCC3)C=CC1=N2 (configuration not stated),1,-29,2063,-13,2.2,/,/
CC1(C)CC(=O)C2=C(C1)Oc1ncn(CCCn3ccnc3)c(=N)c1C2c1ccccc1 (configuration not stated),-3,-13,7424,-4,-1.4,-7,-8
COc1ccc(/C=C2/SC(=O)N(CC(=O)NCCC(C)C)C2=O)cc1OC,1,-13,4196,0,3.8,-9,10
COc1cc(C(=O)Nc2cc(C)ccn2)cc(OC)c1OC,0,-11,5815,2,-0.6,-3,9
O=C(CSc1ncccn1)NCc1ccccc1,4,-8,10053,-4,2.9,10,6
COC(=O)C1=C(C)N(Cc2ccco2)C(=O)NC1c1cccc(C(F)(F)F)c1 (configuration not stated),-12,/,/,/,5.0,-6,2
O=C(c1ccco1)N1CCN(S(=O)(=O)c2ccc(Cl)s2)CC1,1,-1,6336,-6,5.5,-2,11
COCCCn1c(C)cc(C(=O)COC(=O)CCc2nc3ccccc3c(=O)[nH]2)c1C,6,/,/,12,2.7,13,10
CCOCC(=O)Nc1cc(Cl)ccc1C,6,-15,4029,-9,8.6,/,/
O=C(CN1C(=O)C2CC=CCC2C1=O)Nc1ccc(-c2nnc3n2CCCCC3)cc1 (configuration not stated),1,-7,10479,-29,2.7,0,-4
CC1CCC(NC(=O)C2c3ccccc3C(=O)N2CCCN2CCOCC2)CC1 (configuration not stated),1,-33,24072*,1,0.6,3,0
CC(C)(C)C(=O)Nc1ccc(Oc2ccc3c(c2)C(=O)N(c2ccc(O)cc2)C3=O)cc1,8,-13,?,-1,8.5,4,16
N=c1n(CCN2CCCCC2)c2ccccc2n1CC(O)c1ccc(Cl)c(Cl)c1 (configuration not stated),-22,-14,12552,3,-1.3,14,26
Cc1ccc(S(=O)(=O)CCC(=O)OCC(=O)N2CCN(S(=O)(=O)c3ccc(Cl)cc3)CC2)cc1,-1,-9,5689,-15,3.6,-2,13

# An excerpt from above, reduced to PrP 5UTR inh.
SMILES,PrP 5UTR inh
CC1OC2C(OC1C)N(S(C)(=O)=O)CCN2S(C)(=O)=O (configuration not stated),9
Cc1ccc(S(=O)(=O)N(CC(=O)Nc2ccccc2-c2ccccc2)c2ccc(C)cc2C)cc1,-18
CC(C)(CNC(=O)COc1ccccc1Cc1ccccc1)N1CCOCC1,-35

# Further records follow:
SMILES,Sa ugtP lethal,PrP 5UTR inh,Bead autofluor,BJeLR lethal,Sa RN4220 lethal,Mtb hypoxia rep,Mtb hypoxia rep growth
O=S1(=O)CCOC[C@H](CC2CCCCC2)N1Cc1cccc(Cl)c1,/,-19,3476,2,/,/,/
CCCc1nc2oc3c(NCC4CCCO4)ncnc3c2c2c1COC(C)(C)C2 (configuration not stated),-6,-29,22258*,-10,-3.0,12,16
O=C(COc1ccccc1)Nc1ccc(S(=O)(=O)N2CCCC2)cc1,-8,-10,5437,12,6.4,1,5
COC(=O)C12CCC(C)(c3nc4ccccc4nc31)C2(C)C (configuration not stated),5,-46,3265,-1,4.5,0,-1
COc1ccccc1C(=O)N1N=C(c2ccc(NS(C)(=O)=O)cc2)CC1c1cccs1 (configuration not stated),-3,-7,3255,-3,9.2,-18,0
NC(=O)c1oc2ccc(Cl)cc2c1N,6,-4,8221,4,-0.1,2,0
Cc1n[nH]c(C)c1C(=O)CC1(O)C(=O)N(Cc2ccccc2)c2ccc(Br)cc21 (configuration not stated),1,-11,22972*,-7,12,6,14
Cc1ccc(Sc2ncccc2COC(=O)NC(C)C)cc1,7,-50,4209,-5,3.2,7,14
CCOC(=O)c1sc(NC(=O)CN2C(=O)NC3(CCC(C)CC3)C2=O)c(C(=O)OCC)c1C (configuration not stated),7,2,?,/,9.1,1,-2
Cc1cc(C)c(NN=c2c(=O)c3ccccc3c2=O)c(C)c1,-1,-126,16485*,-6,1.3,-1,1
COc1ccc(C2C(C(=O)c3cccs3)=C(O)C(=O)N2c2cccc(C)n2)cc1OC (configuration not stated),3,-31,5886,-16,5.5,9,1
O=C(NC(C(=O)c1ccccc1)n1ccc(=O)[nH]c1=O)c1ccccc1 (configuration not stated),-1,-25,3816,8,0.2,15,8
Cc1ccc(NC(=O)C(c2ccccc2)N2CCN(C(=O)c3ccco3)CC2)cc1 (configuration not stated),8,-23,3968,/,0.0,16,43
O=C(O)c1cc(=S)nc[nH]1,11,-8,2943,/,5.5,6,1
CCOc1ccccc1OCCCC(=O)N(CC)CC(=O)Nc1ccc(NC(C)=O)cc1,4,-15,6415,-4,1.7,3,-6
COCCCNC(=O)/C(C#N)=C/c1c(N2CCN(C)CC2)nc2ccccn2c1=O,7,-7,3973,1,2.2,-13,-1

# Entries listed so far with an aryl methoxy group (9):
SMILES,Sa ugtP lethal,PrP 5UTR inh,Bead autofluor,BJeLR lethal,Sa RN4220 lethal,Mtb hypoxia rep,Mtb hypoxia rep growth
COc1cc(CN2CCCC(C)C2)ccc1OCc1ccccc1 (configuration not stated),9,-25,3266,8,3.2,12,7
COc1ccc(-n2c(C)c(C)c3c(N)ncnc32)cc1,7,5,3760,-6,0.4,-10,0
COc1ccc(C2SCC(C(=O)NCc3ccc(F)cc3)N2C(C)=O)cc1 (configuration not stated),14,0,5735,2,2.7,/,/
COc1ccc(Cn2c(C3CC3)nc3ccc(NC(=O)c4cccnc4)cc3c2=O)cc1,6,-24,4086,-1,4.7,17,7
COc1ccc(C(=O)CC2OC(=O)c3ccccc32)cc1OC (configuration not stated),2,-18,21822*,10,7.6,6,11
COc1ccc(/C=C2/SC(=O)N(CC(=O)NCCC(C)C)C2=O)cc1OC,1,-13,4196,0,3.8,-9,10
COc1cc(C(=O)Nc2cc(C)ccn2)cc(OC)c1OC,0,-11,5815,2,-0.6,-3,9
COc1ccccc1C(=O)N1N=C(c2ccc(NS(C)(=O)=O)cc2)CC1c1cccs1 (configuration not stated),-3,-7,3255,-3,9.2,-18,0
COc1ccc(C2C(C(=O)c3cccs3)=C(O)C(=O)N2c2cccc(C)n2)cc1OC (configuration not stated),3,-31,5886,-16,5.5,9,1

# Outcome played no part in choosing rows (roughly 4.1% active in at least one column).
